# Source: PubChem BioAssay
# gsp antagonist = antagonizes gsp, the McCune-Albright syndrome mutation. Potency, µM (titrated, usually from 76.9 µM), inactives show at the highest dose activity change, negative = inhibition, usual class: inhibitors. 0.4% of 340,000 active. AID 624288. gsp-mutant cells, cAMP HTRF, 30 min; control for the full effect not named in the record; active = falling curve of any shape with a large fitted effect; inconclusive = falling curve, mostly with a smaller effect; inactive = flat or rising curve; cell line not stated here;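 further: intracellular cAMP measured with PDE inhibitor Ro 20-1724 present during compound exposure; potency means the concentration at half of the fitted maximal effect; on the % scale 0 is the no-effect control and ±100 the full control effect; nearly all actives have a fitted effect of over 65% in size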
#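 HTRF cAMP measurement after 30 min RT detection following 30 min, 37C compound treatment alongside […] (added as 300 uM solution) in G418-selected cells seeded at 2000/well and grown 16–24 h.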
# ClpP mod = qHTS Assay for Activators of ClpP | purified B. subtilis ClpP, FRET peptide cleavage, 20 min | 1.9% of 340,000 active | ATP-dependent Clp protease proteolytic subunit (Bacillus subtilis (strain 168)), P80244 | Potency, µM (highest dose often 57.5 µM), without a hit: top-dose activity change, negative = active; active = well fitted falling curve with a large enough effect; inconclusive = small, poorly fitted or top-dose-only effect; inactive = no such curve, though single readings can be large or run the other way; further: potency means the concentration at half of the fitted maximal effect; the source files actives as falling curves though it sought activators and does not explain the sign; nearly all actives have a fitted effect of over 65% in size; many hits overshoot -100%
# Target sequence (P80244 whole entry, looked up): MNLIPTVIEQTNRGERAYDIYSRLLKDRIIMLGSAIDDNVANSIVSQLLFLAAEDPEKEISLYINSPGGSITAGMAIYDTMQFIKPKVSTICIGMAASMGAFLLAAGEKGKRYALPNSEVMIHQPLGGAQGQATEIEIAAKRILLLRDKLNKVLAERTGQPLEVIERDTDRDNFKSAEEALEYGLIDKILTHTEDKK
#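 FRET quenching reversal measured ClpP activation: 10 microg/mL B. subtilis ClpP at pH 8 with the FRET-FV decapeptide, read at 430 nm after 320 nm excitation. The 20-min minus 0-min signal was scaled between DMSO/no-enzyme wells and ADEP (5.8 microM final).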
# Sfp inh = inhibitors of Bacillus subtilis Sfp phosphopantetheinyl transferase; 3.5% of 310,000 active; Q9F4F7; Potency, µM, for inactives: max response, negative = inhibition, usual class: inhibitors; Biochemical Sfp PPTase activity, qHTS; active means well fitted inhibition curve with a large enough effect; inconclusive means small, poorly fitted or top-dose-only effect, or another doubt; inactive means no such curve, though single readings can be large or run the other way;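 further: the enzyme is Sfp with the accession as filed and its product quenches rhodamine fluorescence; potency means the concentration at half of the fitted maximal effect; 0% = enzyme reaction without inhibitor and -100% = no enzyme wells; top concentration of the series not given in the record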
#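 With Hepes-Na pH 7.6 buffer containing 10 mM MgCl2, Sfp (15 nM) modified BHQ-2-YbbR (12.5 uM) using rhodamine-CoA (5 uM). Two reads 30 minutes apart at 525/598 nm yielded each well's rate.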
# D2 ag = human D2 receptor agonism in beta-arrestin assay. DiscoveRx PathHunter D2 beta-arrestin, luminescence, 90 min; 100% = 57 uM dopamine signal. activation, % (test concentration not listed). 0.084% of 360,000 active; in the data active = activation above about 40%; inconclusive = about 15% to 40%; inactive = below about 15%; further: compound concentration not given in the record; the text of the record calls up to 30% inactive
# Target sequence (P14416 whole entry, looked up): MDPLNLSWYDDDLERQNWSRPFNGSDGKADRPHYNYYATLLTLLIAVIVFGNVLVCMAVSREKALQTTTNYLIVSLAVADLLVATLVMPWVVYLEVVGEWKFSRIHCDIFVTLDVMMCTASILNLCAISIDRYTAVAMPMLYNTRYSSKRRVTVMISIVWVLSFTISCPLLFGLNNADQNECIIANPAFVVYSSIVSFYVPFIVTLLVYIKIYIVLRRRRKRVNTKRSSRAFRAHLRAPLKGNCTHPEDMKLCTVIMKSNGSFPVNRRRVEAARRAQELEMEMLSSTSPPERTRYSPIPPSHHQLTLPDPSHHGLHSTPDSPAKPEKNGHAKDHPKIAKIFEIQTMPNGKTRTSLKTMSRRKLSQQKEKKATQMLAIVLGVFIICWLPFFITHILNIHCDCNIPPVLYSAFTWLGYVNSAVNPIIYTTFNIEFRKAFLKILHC
#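 DiscoveRx PathHunter D2 beta-arrestin cells (2,100/well) attached overnight, then compound-stimulated 90 min at 37 C in HBSS/10 mM HEPES/0.1% Tween-20 buffer; beta-galactosidase complementation read by luminescence after 1 h at ambient temperature. Dopamine 57 uM final (EC100) as control.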
# Menin MLL FP FL = displaces fluorescein MLL peptide from human menin; Fluorescence polarization, fluorescein-MLL peptide displacement from menin; FP activity change, % at 61.4 µM; 290,000 tested, under 10 active; AID 1766; inconclusive = falling polarisation curve, or a change in total fluorescence; inactive = total fluorescence flat and polarisation flat or rising; no compound was filed as active; the % refers to the polarisation; negative = inhibition;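 further: % of control where 0% means no effect; inhibitors lower the polarisation; unlabelled MLL peptide was the positive control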
# gsp agonist = agonists of gsp mutant (McCune-Albright syndrome); 0.13% of 340,000 active; gsp mutant cells, cAMP HTRF, 30 min; control for the full effect not named in the record; AID 624287; Potency, µM (series often up to 76.9 µM), inactives show top-dose activation (cAMP increase), most hits filed as activators; active = well fitted activation curve with a large enough effect; inconclusive = small, poorly fitted or top-dose-only effect, or another doubt; inactive = no such curve, though single readings can be large or run the other way; cell line not stated here;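 further: phosphodiesterase inhibitor Ro 20-1724 added with compounds to block cAMP breakdown; potency means the concentration at half of the fitted maximal effect; nearly all actives have a fitted effect of over 60% in size; about a fifth of the inactives were tested at one dose only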
#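 Cells in DMEM/10% FBS with G418 were pretreated with compounds in DMSO plus […] (300 uM stock) for 30 min at 37C. cAMP was measured by HTRF (cAMP-d2 plus anti-cAMP antibody-K) after 30 min at room temperature.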
# PINK1 modulator = changes PINK1 expression. PINK1 immunofluorescence, high-content cytometry, 24 h. Potency, µM (highest dose often 76.6 µM), for the others: top-dose activation (PINK1 increase), most hits filed as activators. 0.2% of 410,000 active. AID 624263; active = well fitted activation curve with a large enough effect; inconclusive = small, poorly fitted or top-dose-only effect; inactive = flat fitted curve, though single readings scatter; cell line not stated here;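 further: potency means the concentration at half of the fitted maximal effect; % of control where 0% means no effect; nearly all actives have a fitted effect of over 65% in size; a mitochondrial uncoupler was the plate control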
#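 Cells are seeded, rested 12 hours, then given compound at five concentrations or DMSO for 24 hours. After fixation, blocking and antibody staining, PINK1 amount and mitochondrial localization are scored; CCCP serves as control.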
# Starred values were filed as active, the others as inactive; u = inconclusive; x = no result given; & = joins results of further samples; [ ] = another dose, or the depositor's remark.
SMILES,gsp antagonist,ClpP mod,Sfp inh,D2 ag,Menin MLL FP FL,gsp agonist,PINK1 modulator
O=C(CSc1ncnc2sccc12)Nc1ccccc1,-6.1%,-0.1%,16.8%,1.7,1.1,-3.8%,0.5%
COc1ccc(N2CCN(c3c(S(=O)(=O)c4ccccc4)cnc4ccc(OC)cc34)CC2)cc1,-16.3%,1.4%,12.4%,-0.5,0.1,-53.6%[inhibitor],1.0%
O=C(/C=C/c1cccc(Cl)c1)NNC(=O)c1ccncc1,-2.2%,-1.1%,x,-1.2,x,29.5%,1.0%
COc1cccc(-c2cc(C(=O)Nc3c(C)nn(Cc4ccccc4C)c3C)no2)c1,-9.2%,0.7%,9.6%,2.6,2.4,u,0.5%[38.3 µM]
COc1ccc(NC(=O)CSc2ccc3c(c2)OCCO3)cc1OC,-1.8%,1.7%,6.5%,-9.4,1.9,8.1%,1.2%
O=C(NCc1cccs1)c1ccc2sc(C3=C[C@@H](O)[C@@H](O)[C@@H](CO)O3)nc2c1,x,-6.6%,x,-3.6,x,x,-0.2%
CS(=O)(=O)N(CC(=O)Nc1ccc(F)cc1F)C1CCCCC1,6.3%,x,5.8%,-0.8,-9.0,-41.4%,-0.9%
Cc1nc(SCC(=O)Nc2cc(C(N)=O)cc(C(N)=O)c2)c2c(C)c(C)sc2n1,10.6%,-22.1%,-15.8%,5.6,1.9,u,0.6%
COc1cc(S(=O)(=O)N2CCOCC2)ccc1NC(=O)COC(=O)COc1ccccc1,1.6%,x,2.8%,-2.7,-2.5,-3.2%[15.4 µM],-0.2%
C=C1CCN([C@@H](Cc2ccccc2)C(=O)Nc2ccc(OC)cc2)S(=O)(=O)c2ccccc21,-19.3%,-4.6%,x,-2.2,x,13.4%,1.1%
COc1cc(-c2nc(CN3CCCN(C(=O)c4ccco4)CC3)c(C)o2)ccc1F,-2.3%,x,12.0%,-1.6,-2.6,2.3%[15.4 µM],0.9%
COc1ccc(OC)c(C2/C(=C(\O)c3ccc4c(c3)OCCO4)C(=O)C(=O)N2CC2CCCO2)c1 (configuration not stated),12.4%,u,15.8%,-1.5,x,1.9%[15.4 µM],0.2%
CC1=C(C(=O)OCC2CCCO2)C(c2ccc(Cl)cc2)NC(=O)N1 (configuration not stated),0.4%,x,12.2%,1.5,0.9,5.0%[15.4 µM],1.9%
COC(=O)c1c(-c2ccccc2)csc1NC(=O)CSc1ncnc2sc(C)c(C)c12,-3.2%,4.0%,-3.6%,1.6,-1.2,-2.1%,1.6%
NS(=O)(=O)c1cccc2c1c([N+](=O)[O-])cc1nc(O)c(O)nc12,1.8%,-2.2%,-16.4%,-4.3,-21.1,x,1.8%
CCC(C)OC(=O)C1=C(C)NC2=C(C(=O)C(C(=O)OC)C(C)C2)C1c1ccc(N(C)C)cc1 (configuration not stated),-9.9%,-1.7%,-8.9%,-2.2,0.9,21.8%,4.9%
Cc1cn([C@H]2C[C@H](O)[C@@H](CCC(=O)NCCCn3ccnc3)O2)c(=O)[nH]c1=O,10.9%,0.1%,x,0.2,x,x,-0.6%
COc1ccc(-c2cc(-c3ccc(OC)c(OC)c3)n[nH]2)c(O)c1,-23.8%,-6.3%,-2.0%,-1.2,1.2,7.3%,9.3%
CC1CCC(NC(=O)N(CCCl)N=O)CC1 (configuration not stated),-4.7%,-1.4%,-46.6%,-1.8,-2.2,x,0.1%
O=C(NCCC1=CCCCC1)C1CCN(S(=O)(=O)N2CCOCC2)CC1,6.5%,1.0%,1.8%,-2.2,1.1,u,-0.7%[38.3 µM]
COc1cccc(C2SCC(=O)N2c2ccc(C)cc2)c1OC (configuration not stated),1.0%,0.7%,-3.4%,1.0,2.2,1.0%[15.4 µM],1.6%
Cc1ccc(N2CCN(C(=O)c3ccccc3NC(=O)C3CC=CCC3C(=O)O)CC2)cc1 (configuration not stated),5.2%,-4.7%,14.1%,-0.5,3.5,-59.5%[inhibitor],-2.0%
C/C(CC(=O)Nc1ccc2c(c1)OCO2)=N\NC(=O)OC(C)(C)C,-5.7%,x,2.9%,-1.2,1.3,4.5%[15.4 µM],-0.6%
CN1C(=O)/C(=C2\SC(=S)N(NC(=O)c3cccnc3)C2=O)c2ccccc21,-18.9%,-1.3%,5.6%,-5.6,-0.4,-2.3%,-1.0%
Cc1cccc2sc(NC(=O)c3cccc(S(=O)(=O)N4CCc5ccccc54)c3)nc12,-1.1%,-10.8%,7.1%,1.8,3.6,-0.9%,5.5%
# (list continues)
SMILES,gsp antagonist,ClpP mod,Sfp inh,D2 ag,Menin MLL FP FL,gsp agonist,PINK1 modulator
Cc1c(C=O)c2ccccc2n1CC(=O)NCc1ccccc1,-1.9%,x,23.0%,-3.8,2.6,-2.8%[15.4 µM],2.0%
CCOC(=O)Cc1csc(NC(=O)c2cc(=O)c3ccccc3o2)n1,-14.3%,-0.3%,8.3%,-3.5,-0.4,4.6%,0.1%
COc1ccc(C(=O)N/N=C/c2ccc(OC(=O)c3ccccc3)cc2)cc1,6.5%,0.7%,8.2%,1.9,-0.5,0.4%,7.2%
COc1ccc(/C=C2\CCCC3C2=NC(=S)NC3c2ccc(OC)cc2)cc1 (configuration not stated),5.7%,0.9%,-47.1%,-3.9,0.1,-39.4%[inhibitor],6.6%
CCN(CC)CCN1C(=O)C2C(C(=O)Nc3ccc(Br)cc3)C3C=CC2(O3)C1C(=O)NC1CCCCC1 (configuration not stated),1.0%,x,11.2%,1.0,0.8,-12.4%,2.6%
CCOc1ccc(C)cc1S(=O)(=O)n1ccnc1,3.4%,-0.2%,-15.6%,0.0,0.2,-1.9%,-0.6%
O=C(Nc1c(Cl)cc(Cl)cc1-c1nc2ccccc2s1)c1ccc(Br)o1,-4.5%,25.1µM*,4.1%,-4.0,2.1,-0.8%,-1.5%[38.3 µM]
O=C(NCCSc1c(-c2ccccc2)[nH]c2ccccc12)c1cc2ccccc2oc1=O,-15.6%,31.9%,19.0%,-0.8,-4.5,-115.3%[inhibitor],1.1%
CNC(=O)c1ccc(NC(=O)C2CCN(c3ncnc4sc(C)c(C)c34)CC2)cc1,-1.6%,2.0%,5.0%,-0.8,-1.2,u,2.0%
Cc1cc(C)c2nc(-c3ccccn3)cc(C(=O)Nc3ccc(S(=O)(=O)Nc4cc(C)on4)cc3)c2c1,u,u,u,2.6,2.9,-76.9%[inhibitor],13.0%[38.3 µM]
Cn1c(=O)[nH]c(=O)c2c1nc(Br)n2Cc1ccccc1Cl,1.1%,u,9.0%,-1.7,1.3,-54.2%[inhibitor],1.0%
Cc1[nH]c(=O)[nH]c(=O)c1S(=O)(=O)N1CCCC(C(=O)NCc2ccc3c(c2)OCO3)C1 (configuration not stated),1.2%,x,21.7%,-2.0,-2.5,-6.4%[15.4 µM],1.5%
c1ccc(C(Nc2cccnc2)c2ccccc2)cc1,-27.5%,-17.2%,x,-6.4,x,-1.3%,3.1%
CC1=C(C(=O)N(C)C)CC(CC(=O)NCC2CCCCC2)C(=O)N1CCCN1CCCC1=O (configuration not stated),x,-0.4%,x,-10.1,x,-35.2%[inhibitor],1.6%
CCN(Cc1ccncc1)C(=O)C1CCC(=O)N(Cc2ccc(Cl)cc2)C1 (configuration not stated),11.8%,0.8%,1.0%,1.0,x,-21.4%,-0.3%
Cc1c(O)ccc2c3c(c(=O)oc12)CCC(C)C3 (configuration not stated),11.9%,25.1µM*,1.0%,-3.9,8.0,11.8%,-2.4%
C=CCN(C(=O)CCC(=O)O)C1CC(=O)N(c2ccc(OCCC)cc2)C1=O (configuration not stated),3.9%,-0.7%,-3.2%,-0.4,1.1,-0.5%,-0.7%
Cc1ccc(CNS(=O)(=O)c2ccc(C(C)(C)C)cc2)n1C,-7.8%,-0.5%,-17.9%,-2.4,0.9,-9.0%,-1.4%[38.3 µM]
CC1(C)CCC(=O)c2ccccc21,4.0%,1.4%,x,-2.4,x,-0.5%[15.4 µM],0.2%
CS(=O)(=O)c1ccc(Cl)c(NC(=O)COC(=O)c2ncc(Cl)c(Cl)c2Cl)c1,-9.7%,14.1µM*,x,-0.8,x,-10.6%,-2.9%
C=CCn1c(SCc2nc3ccccc3[nH]2)nnc1-c1cccc(OC)c1,8.2%,-1.1%,5.7%,-2.2,-0.5,-2.9%,-2.1%[38.3 µM]
CC(=O)OC(C)(C)C1Cc2cc3ccc(=O)oc3cc2O1 (configuration not stated),-0.3%,4.1%,0.9%&10.6%,-3.2,-6.2&-6.5,-43.5%[inhibitor],-1.3%&1.5%
CC(C)(C)OC(=O)NNC(=S)NCc1ccc(Cl)cc1,-4.9%,-0.6%,8.9%,-2.0,2.4,11.5%,0.8%
CCOC(=O)C1CCN(C(=O)CCc2ccc(S(=O)(=O)NC(C)C)cc2)CC1,2.9%,-2.6%,-2.6%,-6.4,-0.8,u,0.4%
COCCCn1cnc2c(c1=O)c1nc3ccccc3nc1n2-c1ccc(C)cc1,-7.4%,-5.1%,9.2%,0.6,1.6,18.7%,8.5%
# New compounds follow
SMILES,gsp antagonist,ClpP mod,Sfp inh,D2 ag,Menin MLL FP FL,gsp agonist,PINK1 modulator
COc1cc2c(cc1OC)C(COc1ccccc1OC)N(C(=O)c1ccco1)CC2 (configuration not stated),-2.5%,-0.1%,-19.7%,-7.1,-0.8,-2.5%[15.4 µM],1.2%
O=C(CCCn1c(=O)oc2ccccc21)NNC(=O)COc1ccc(F)cc1,1.5%,-0.5%,x,3.4,x,u,3.9%
Cc1ccc2nc(SCC(=O)Nc3c(C)n(C)n(-c4ccccc4)c3=O)[nH]c2c1,14.3%,0.6%,7.8%,-3.7,3.6,-24.2%,-0.5%
CCN(CC)CCSc1nc(O)c(-c2ccccc2)c(=O)[nH]1,10.8%,-1.4%,6.9%,2.0,6.2,4.7%,-0.6%
Cc1ccc(NC(=O)CSc2nc3sc(C)cc3c(=O)n2C)cc1,2.0%,x,3.8%,0.9,1.4,u,17.7%
O=C(/C=C/Nc1ccccc1Oc1ccccc1)c1ccco1,-19.0%,x,u,-0.7,1.4,4.2%[15.4 µM],0.5%
COc1ccccc1C(CC(=O)O)c1ccc2c(c1)OCO2 (configuration not stated),-21.3%,0.5%,11.8%,5.6,1.0,u,0.0%
Cc1cc(C(=O)NCc2ccco2)cs1,6.5%,-0.5%,-2.0%,0.3,3.1,25.3%,2.5%[38.3 µM]
CC1=NN(c2cccc(F)c2)C(=O)/C1=C/c1ccc(N(C)C)cc1,5.7%,-9.0%,14.2%,0.8,-14.1,-10.6%[15.4 µM],3.8%
Cc1ccc(S(=O)(=O)NCc2ccccc2)cc1C(=O)NCC1CCCO1 (configuration not stated),12.7%,0.9%,x,3.7,x,1.4%[15.4 µM],-1.0%
